Source: PubChem (National Center for Advancing Translational Sciences (NCATS))
D2 ag = activates the human D2 dopamine receptor | AID 624465 | 0.084% of 360,000 active | activation, % (concentration not given with the values) | DiscoveRx PathHunter D2 beta-arrestin, luminescence, 90 min; 100% = 57 uM dopamine signal; in the data active = activation above about 40%; inconclusive = about 15% to 40%; inactive = below about 15%; further: compound concentration not given in the record; the text of the record calls up to 30% inactive
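Agonist mode: compounds alone added to overnight-plated D2 PathHunter cells for 90 min at 37 C, with 57 uM final dopamine (EC100) defining full response. Beta-arrestin recruitment detected by chemiluminescent reagent, read after 1 h at ambient temperature.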
CtBP-E1A blk = blocks the CtBP interaction with E1A; AlphaScreen GST-E1A/His-CtBP binding, 1536-well; hits give low values; control for the full effect not named in the record; activity change, % (concentration not given with the values); 0.49% of 340,000 active; in the data active means activity change below about -65%; inconclusive means about -30% to -65%; inactive means above about -30%; further: on the % scale 0 is the no-effect control and ±100 the full control effect
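Protein mix (5X: 125 nM each GST-E1A, His-CtBP) was incubated with pinned compound 2 h at 37 deg C in dark, in 50 mM Tris pH 8.0 buffer with 300 mM NaCl. Glutathione donor and nickel acceptor beads followed; AlphaScreen signal read after 1 h.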
Six1-Eya2 blk = inhibitors of human Six1/Eya2 interaction. Q15475+O00167. AlphaScreen GST-Six1/His-Eya2 binding, biochemical; hits give low values; control for the full effect not named in the record. activity change, % (no concentration beside the values). 0.56% of 360,000 active; in the data active = activity change below about -65%; inconclusive = about -30% to -65%; inactive = above about -30%; further: on the % scale 0 is the no-effect control and ±100 the full control effect; compound concentration not given in the record
Target sequence (O00167 whole entry, looked up): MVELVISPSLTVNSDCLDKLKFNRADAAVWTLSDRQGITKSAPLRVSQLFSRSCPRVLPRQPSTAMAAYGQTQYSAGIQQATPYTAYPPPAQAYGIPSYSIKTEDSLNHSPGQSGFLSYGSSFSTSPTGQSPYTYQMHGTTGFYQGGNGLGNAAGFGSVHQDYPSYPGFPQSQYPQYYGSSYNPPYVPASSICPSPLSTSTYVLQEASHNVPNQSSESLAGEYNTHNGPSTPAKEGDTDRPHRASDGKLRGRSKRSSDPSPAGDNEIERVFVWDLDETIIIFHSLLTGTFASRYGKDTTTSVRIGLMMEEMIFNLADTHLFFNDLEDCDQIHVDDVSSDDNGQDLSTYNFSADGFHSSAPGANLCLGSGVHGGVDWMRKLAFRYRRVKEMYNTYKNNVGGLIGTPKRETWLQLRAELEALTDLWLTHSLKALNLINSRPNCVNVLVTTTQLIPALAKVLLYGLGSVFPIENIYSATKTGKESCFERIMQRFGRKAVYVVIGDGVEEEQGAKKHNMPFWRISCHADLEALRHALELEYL
Target sequence (Q15475 whole entry, looked up): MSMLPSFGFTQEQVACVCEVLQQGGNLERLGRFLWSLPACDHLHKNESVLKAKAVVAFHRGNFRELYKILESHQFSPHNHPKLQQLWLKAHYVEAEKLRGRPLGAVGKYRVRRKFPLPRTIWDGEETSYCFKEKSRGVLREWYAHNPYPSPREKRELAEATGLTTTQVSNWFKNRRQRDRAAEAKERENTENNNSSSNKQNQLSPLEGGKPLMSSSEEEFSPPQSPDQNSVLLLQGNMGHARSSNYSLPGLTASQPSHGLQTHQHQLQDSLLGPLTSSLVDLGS
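Homogeneous AlphaScreen proximity assay pairing GST-Six1 with His-tagged Eya2 (added as 5X mix: 250 nM and 500 nM) in 50 mM Tris pH 8.0, 300 mM NaCl, 1 mM TCEP. Glutathione donor and nickel acceptor beads; 1 h, 37 °C, dark.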
D2 potentiator = positive allosteric modulators of human D2 dopamine receptor. AID 624464. P14416. 0.23% of 360,000 active. DiscoveRx D2 beta-arrestin cells, luminescence, 90 min; 100% = 57 uM dopamine signal. potentiation, % (no concentration beside the values); active = potentiation of 50% or more; inconclusive = 30% to 50%; inactive = 30% or less;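 further: compound concentration not given in the record; tested on top of an EC20 dose of dopamine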
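PathHunter D2 cells, attached overnight at 37 deg C, received compound in DMSO plus dopamine at EC20 (50 nM final) for 90 min at 37 deg C. Beta-arrestin recruitment was read as luminescence after 1 h with detection reagent at ambient temperature.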
TRPML1 agonist = human mucolipin-1 channel agonism | Q9GZU1 | 0.12% of 410,000 active | activation, % (no concentration beside the values) | TRPML1-expressing cells, Ca2+ dye fluorescence, FDSS; host cell line not named in the record; reference of the full effect not given here | AID 624414; in the data active = activation above about 50%; inconclusive = about 30% to 50%; inactive = below about 30%; further: 0% is about no effect; the text of the record puts the active cut at 80%
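Tet-induced TRPML1-DL cells, 1,500 per well, cultured overnight, were loaded with a no-wash Ca2+ dye for 45–90 min. Calcium fluorescence was recorded on the FDSS for 110 s after compound addition, before the EC80 agonist (4 uM 54-4) was added.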
PINK1 expr mod = changes PINK1 expression; Potency, µM (doses to about 76.6 µM), without a hit: at the top dose activation (PINK1 increase), most hits filed as activators; PINK1 immunofluorescence, high-content cytometry, 24 h; 0.2% of 410,000 active; active = well fitted activation curve with a large enough effect; inconclusive = small, poorly fitted or top-dose-only effect; inactive = flat fitted curve, though single readings scatter; cell line not stated here;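 further: potency means the concentration at half of the fitted maximal effect; % of control where 0% means no effect; nearly all actives have a fitted effect of over 65% in size; a mitochondrial uncoupler was the plate control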
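Cells are seeded, rested 12 hours, then given compound at five concentrations or DMSO for 24 hours. After fixation, blocking and antibody staining, PINK1 amount and mitochondrial localization are scored; CCCP serves as control.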
* = called active by the depositor; ? = inconclusive; . = not tested or not shown; & = joins results of further samples; [ ] = dose if it differs, or a comment. No enrichment for hits; any-hit rate near 1.3%.

Results follow in this order: D2 potentiator, Six1-Eya2 blk, CtBP-E1A blk, PINK1 expr mod, D2 ag, TRPML1 agonist
> CCOc1cc(/C=N\NC(=O)OC(C)(C)C)ccc1OC(=O)c1ccco1
    -9.1, -4.7, -2.4, -0.2%, -0.8, 1.5
> O=C(CCc1ccccc1)NC(=S)Nc1cccc(Br)c1
    79.7*, 5.4, 11.8, 10.7%, ?, 0.3
> CC(C)c1[nH]nc2c1C(c1cccnc1)C(C#N)=C(N)O2 (configuration not stated)
    -5.8, 2.1, 9.6, 1.0%[38.3 µM], -2.2, -0.5
> CCN(C(=O)c1ccc(NC(C)=O)cc1)c1ccccc1
    -6.2, -2.6, 3.7, -0.9%[38.3 µM], -0.4, -0.4
> COc1cccc(C(=O)N2[C@H](COCc3ccccc3)C=CS2(=O)=O)c1
    0.9, 4.1, 6.6, 3.2%, 5.8, -0.6
> O=C(CCC(=O)c1ccccc1)Nc1ccccc1
    -1.6, 8.2, -7.3, 1.4%, -1.0, -0.1
> CCOC(=O)Cc1c(C)[nH]n(-c2ccccc2)c1=O
    -6.9, 4.3, -2.7, 1.8%, 0.3, 0.3
> Cc1ccc(S(=O)(=O)NCCCCCC(=O)Nc2ccccc2)cc1
    3.0, 6.4, 8.2, -1.1%, 0.1, 1.8
> Cc1nn(Cc2ccccc2)c(C)c1N
    12.9, 1.5, -5.4, 16.7%, 1.9, -0.3
> CC(C)n1cc(CN2CCC(n3nccc3NC(=O)C3CCCC3)CC2)cn1
    -15.9, 3.0, 7.3, 1.2%, -2.7, 0.1
> FC(F)Oc1ccccc1/C=N/Nc1nc2ccccc2o1
    -21.6, -0.3, -0.1, 2.3%, -1.3, 0.0
> OCCNc1nc2nonc2nc1NCCO
    -6.1, -0.2, ., 2.8%, -4.4, 0.3
> COc1ccc(C(=O)COc2cccc(NC(=O)c3ccco3)c2)cc1
    -10.8, -8.9, -8.7, 1.9%, -1.4, 1.1
> CCOc1ccc2nc(NC(=O)C3CSC4(C)CCC(=O)N34)sc2c1 (configuration not stated)
    4.6, -21.0, ., 4.0%, -2.8, -1.3
> O=C(CN1C(=O)c2ccc([N+](=O)[O-])cc2C1=O)NCc1ccc(C(=O)O)cc1
    51.3*, 1.3, 0.6, 0.7%, 8.9, -1.0
> NCCCC[C@H]1CNC(=S)N1CC1CCCCC1
    -7.7, 1.5, -0.1, 0.4%, -1.6, -0.3
> COc1ccc(-c2csc(Nc3cc(C)ccn3)n2)cc1OC
    -12.7, -18.2, -16.6, -0.6%, 1.8, 2.0
> CCN1CCN(C(=O)c2cn(CCOC)c(=O)c3c2c2ccccc2n3C)CC1
    -5.6, 0.8, 8.8, -2.1%[38.3 µM], 0.9, 1.3
> COc1ccc(CN2CCSCC2)c(OC)c1C
    -10.8, 3.1, 2.1, 2.0%, -4.2, -0.8
> O=C(Cc1coc2ccc3ccccc3c12)Nc1nnc(C2CC2)s1
    -13.3, -3.2, 5.1, 6.6%, -4.7, 0.2
> CC(=O)Cc1nsc(NC(=O)c2ccc(-c3ccc(Cl)c(C(F)(F)F)c3)o2)n1
    3.4, 8.9, -2.4, 0.8%, 0.0, -0.9
> CCN(CC)S(=O)(=O)c1ccc(C)c(NC(=S)NC2CCCCC2)c1
    -8.4, -0.8, -6.4, 0.6%, 0.9, 0.6
> COc1ccc2cc(C(=O)Nc3ccc(S(N)(=O)=O)cc3)sc(=O)c2c1OC
    -4.8, -0.7, ., 3.4%, 5.0, -0.3
> CCCCN1C2CCCC1CC(NC(=O)c1cccc(OC)c1)C2 (configuration not stated)
    -13.5, -2.7, -5.6, -1.2%, -5.4, 0.5
> COc1ccccc1C(c1nnnn1C1CCCC1)N1CCN2CCCC2C1 (configuration not stated)
    -16.2, 18.0, 49.1, ., -3.3, -0.3
> CCOCCCNC(=O)C1CCN(S(=O)(=O)N2CCCCC2)CC1
    -0.2, 2.6, 1.0, -2.5%, -0.8, 2.0
> Cc1ccccc1NC(=O)Cn1nc(C(F)(F)F)cc1C1CC1
    -3.6, 4.2, -2.6, 0.8%[38.3 µM], -0.3, 0.5
> CCOC(=O)c1ccc(NC(=O)N2CCCCCC2)cc1
    -23.5, -5.1, 9.9, -0.4%, -5.3, 0.4
> Oc1ccccc1C=NCCN1CCN(CCN=Cc2ccccc2O)C1c1ccccc1O (configuration not stated)
    3.6, -85.8*, -98.5*, -3.1%, 0.7, -0.5
> COc1ccccc1CNS(=O)(=O)c1ccc2c(c1)CC(=O)N2C
    3.7, 0.7, 4.4, -0.2%&4.0%, 6.0, -0.5&-0.2

Sorted by molar mass (lowest first): part of the list above
Results follow in this order: D2 potentiator, Six1-Eya2 blk, CtBP-E1A blk, PINK1 expr mod, D2 ag, TRPML1 agonist
> CCOC(=O)c1ccc(NC(=O)N2CCCCCC2)cc1
    -23.5, -5.1, 9.9, -0.4%, -5.3, 0.4
> CCCCN1C2CCCC1CC(NC(=O)c1cccc(OC)c1)C2 (configuration not stated)
    -13.5, -2.7, -5.6, -1.2%, -5.4, 0.5
> O=C(Cc1coc2ccc3ccccc3c12)Nc1nnc(C2CC2)s1
    -13.3, -3.2, 5.1, 6.6%, -4.7, 0.2
> CCN1CCN(C(=O)c2cn(CCOC)c(=O)c3c2c2ccccc2n3C)CC1
    -5.6, 0.8, 8.8, -2.1%[38.3 µM], 0.9, 1.3

The list continues:
Results follow in this order: D2 potentiator, Six1-Eya2 blk, CtBP-E1A blk, PINK1 expr mod, D2 ag, TRPML1 agonist
> CN(C)CCN(C)C1CN(Cc2ccccc2)S(=O)(=O)C1 (configuration not stated)
    -8.9, 8.6, 1.3, 0.5%, -6.1, -0.1
> COc1cc(/C=C(\C#N)c2ccccn2)ccc1OCC(=O)Nc1c(Cl)cccc1Cl
    25.3, 2.8, -3.5, 15.4%, -1.9, 0.1
> Cc1ccnc(Nc2nc(-c3ccc(O)c(O)c3)cs2)c1
    20.2, -10.5, ?, 20.6%, ?, 0.0
> CCOC(=O)C1CCN(C(=O)C(=O)N2CCC(C(=O)OCC)CC2)CC1
    -6.2, 5.4, 33.9, 2.6%[38.3 µM], -0.5, -0.4
> CCn1cc(CN2CCN(Cc3ccsc3)C(CCO)C2)cn1 (configuration not stated)
    -19.8, -1.8, 9.0, 0.0%, 0.7, -0.2
> Cc1nn(C)c(C(=O)NNC(=O)Nc2cccc(C(F)(F)F)c2)c1Cl
    0.3, -0.4, 16.6, -0.3%, 2.8, 1.0
> Cc1ccc(S(=O)(=O)N2CCN=C2c2ccccc2)cc1C
    -16.8, 3.0, 0.4, -1.9%, -3.6, 2.3
> O=C(Nc1ccncc1)c1ccc([N+](=O)[O-])cc1Cl
    21.2, -1.8, 7.8, -1.8%, 4.2, -0.4
> CN1CCN(C(=O)c2cc3nc(-c4ccc(F)cc4)cc(C(F)(F)F)n3n2)CC1
    5.6, -15.6, -8.5, 3.5%, 4.0, 1.3
> CS(=O)(=O)c1ccc2nc(NC(=O)c3ccc(N4C(=O)CCC4=O)cc3)sc2c1
    -2.7, 0.5, 16.7, 24.8%, 3.9, 0.2
> CN(c1ccccc1)S(=O)(=O)c1cccc(NC(=O)Cn2cnc3ccccc3c2=O)c1
    -1.3, -13.8, -0.8, -1.3%, 3.5, 1.6
> CCn1c(SCc2nc3ccccc3c(=O)[nH]2)nnc1C(C)NC(=O)c1ccccc1 (configuration not stated)
    -4.7, 8.0, 3.2, 2.4%, -0.9, 0.6
> COc1ccccc1OCc1nc2ccccc2n1C
    -7.3, 7.2, 3.6, 2.5%, -2.2, 0.7
> COc1cccc(NC(=O)CC(=O)c2ccc([N+](=O)[O-])cc2)c1
    -5.7, -9.0, ., ?, 1.4, -0.6
> Cc1ccc(C2C(C#N)=C3N=C(N)c4ccccc4N3C3=C2C(=O)CCC3)cc1 (configuration not stated)
    -8.8, -4.1, -2.5, 3.4%, -1.0, 1.6

D2 potentiator, hit marks shown above
molecule	D2 potentiator	Six1-Eya2 blk	CtBP-E1A blk	D2 ag
O=C(CCc1ccccc1)NC(=S)Nc1cccc(Br)c1	79.7*	5.4	11.8	?
O=C(CN1C(=O)c2ccc([N+](=O)[O-])cc2C1=O)NCc1ccc(C(=O)O)cc1	51.3*	1.3	0.6	8.9

(continued)
Results follow in this order: D2 potentiator, Six1-Eya2 blk, CtBP-E1A blk, PINK1 expr mod, D2 ag, TRPML1 agonist
> Cc1ccc(NC(=O)c2ccc(OC(F)(F)F)cc2)cc1S(=O)(=O)N(C)C
    -18.5, 4.3, -3.6, 2.9%, 3.8, 0.1
> CC(=O)Nc1ccc(NC(=O)CCc2nc3ccccc3c(=O)[nH]2)cc1
    -9.8, 0.7, 0.4, -0.1%, -5.4, -0.6
> CCN(CC)S(=O)(=O)c1ccc(Cl)c(NC(C)=O)c1
    -4.7, 5.4, -6.8, 2.6%, -3.2, 0.5
> Cc1ccc2cc(C(c3nnnn3C3CCCC3)N(Cc3ccco3)Cc3cccs3)c(=O)[nH]c2c1 (configuration not stated)
    3.8, -11.4, -10.5, -0.2%, -2.6, 0.9
> CCC(Sc1nncn1C)C(=O)Nc1nnc(-c2ccc(Cl)cc2)s1 (configuration not stated)
    -9.0, -2.5, -2.9, -0.8%, -0.1, 0.1
> O=S1(=O)CSCS(=O)(=O)C1
    -5.8, 2.2, 0.1, -0.3%, -2.3, 0.4
> N#Cc1ccc(OCC(=O)N2CCN(S(=O)(=O)c3cccc(Cl)c3)CC2)cc1
    7.2, -0.4, -0.9, -0.9%, 4.1, 0.4
> COc1ccc(Nc2nc(-c3cccnc3)cs2)c(OC)c1
    -8.1, -29.2, 3.6, -0.6%, -2.9, 0.4
> CC(=O)/C(N=Nc1cc2c(cc1[N+](=O)[O-])OCCO2)=C(\C)O
    -3.9, -3.3, -0.3, -0.4%, -2.4, 1.0
> CC1CCN(C(=O)C(=O)c2cn(CC(=O)N3CCCCCC3)c3ccccc23)CC1
    3.8, 14.0, 0.0, 4.6%, -1.5, 0.6
> CC(C)Cn1cc(-c2cccc3nccn23)cn1
    -8.9, 1.2, 0.0, -0.7%, -2.3, 0.5
> CCOc1ccc(C(=O)C2CCN(C(=O)c3ccccc3C(=O)O)CC2)cc1
    3.6, 2.9, 4.2, 3.8%[38.3 µM], 0.7, 0.5
> Cc1ccc(NC(=S)N2CCN(C(=O)C3CCCO3)CC2)c(C)c1 (configuration not stated)
    8.3, 5.6, 2.1, -0.2%, 2.0, -0.5
> O=C(Cc1ccc(Cl)cc1Cl)NCC1(N2CCOCC2)CCCCC1
    -0.2, 20.0, 3.8, -0.3%, -3.6, 0.4
> CCCCN1C(=O)C(=O)NC[C@@H]1Cc1ccc(O)cc1
    ., 10.6, 0.3, 0.2%, ., -0.3
> COc1cc(NC(=O)C2CCN(c3cnccn3)CC2)cc(OC)c1
    -14.3, -5.4, -10.2, 4.0%&-1.1%, -5.0, 0.2&-1.3
